CapD inh = blocks the Bacillus anthracis CapD enzyme; 140,000 tested, 0.23% active; purified CapD enzyme, fluorescence intensity read-out; hits give low values; some hits fall short of the stated cut; AID 492967; z-score (no concentration beside the values);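 active means z-score under -4 in either of two replicates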;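 further: stock transfer was 100 nL into about 40 µL; score is relative to mean and spread of the plate; one replicate is shown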
AID504770 = growth inhibitors of E. coli YBA685 in a screen for V. cholerae RctB (chromosome II replication) inhibitors. E. coli YBA685 rctB-dependent plasmid, OD600 growth, 3 h; hits give low values. z-score (test concentration not listed). 130,000 tested, 0.27% active. AID 504770;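 active means z-score under -2 on both plates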;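 further: wells of about 30 µL received 100 nL stock; score is relative to mean and SD of the test wells; the first replicate is given; strong numbers were not always called active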
Active calls of the source: *; · = no result given; & = joins results of further samples.

mol	CapD inh	AID504770
CSCCSc1nnc(-c2cccc(S(=O)(=O)N3CCCCC3)c2)o1	·	-0.85
Nc1ncc(N=Nc2ccc(SC(F)F)cc2)s1	·	-0.15
Cc1nc(-c2ccc(C(F)(F)F)cc2)sc1C(=O)NNC(=O)OCCSc1ccc(C(F)(F)F)cn1	28	·
Cc1cc(C(=O)O/N=C(\N)CSc2ncccc2C(F)(F)F)no1	0.21	-1.1
CC1CCCCC1NC(=O)CSc1ccc(S(=O)(=O)N2CCCC2)cn1 (stereo not given)	·	-1.2
CCn1c2ccccc2c2cc(NC(=O)C(C)C)ccc21	-1.3	0.15
CCOC(=O)c1c(CN2CCCC2)n(Cc2ccccc2)c2cc(Br)c(O)cc12	-0.11	·
CCCN1CCC(N(C(=O)c2ccc(NC(=O)/C=C/c3ccccc3)cc2)C2CC2)CC1	-0.24	·
COc1cc(S(=O)(=O)N(Cc2cccnc2)Cc2ccco2)ccc1-n1cnnn1	·	0.75
CCOC(=O)c1sc2nc(CN3CCCCC3)nc(NC3CC3)c2c1C	·	0.2
Brc1cnc(N2CCOCC2)nc1	3.1	0.2
O=C1CCC(=O)N1NC(=O)C12CC3CC(CC(C3)C1)C2	·	0.1
CC(C)(C)OC(=O)N=Nc1c(O)n(Cc2ccccc2)c2ccccc12	·	1.1
COCCOC(=O)C1=C(N)OC2=C(C(=O)CC(C)(C)C2)C12C(=O)Nc1ccccc12 (stereo not given)	-0.33	·
NS(=O)(=O)c1ccc(CCNC(=O)c2ccc3c(=O)n(Cc4ccc5c(c4)OCO5)c(=S)[nH]c3c2)cc1	0.4	·
Cc1ccnc(SCC(N)=O)c1C#N	·	0.2
COc1ccc(-n2ccsc2=S)cc1	-0.73	-0.25
CC1C/C(=N/N=c2\sc3ccccc3n2C)CC(C)(C)C1 (stereo not given)	·	-0.7
O=C(NCC12CC3CC(CC(C3)C1)C2)OCCN1CCN(Cc2cc3ccccc3o2)CC1	-1.1	·
Cc1cccc(N2CCN(c3nc4ccccc4n4cnnc34)CC2C)c1 (stereo not given)	-0.43	2.5
CCc1ccccc1N1C(=O)CC(N2CCc3ccccc32)C1=O (stereo not given)	·	0.3
CCOC(=O)c1ccc(N2CN(CC)CNC2=S)cc1	-0.12	-0.9
COc1cc(C#N)ccc1OCC(=O)NC1CCCCC1C (stereo not given)	·	-0.5
O=S(=O)(NCc1nc(-c2ccccc2)no1)c1ccc(Cl)cc1	-0.6	0.15
CCCOCCOC(=O)NNC(=O)CNS(=O)(=O)c1cccc2nsnc12	0.32	·
CN(C(=O)COC(=O)c1cn(C)c2ccccc12)C1CCCCC1	·	-0.3
CSC1=NC(=Nc2cccc(C)c2)C2(CCCCC2)N1c1cccc(C)c1	-0.53	·
NC1=NC(Cc2ccccc2)CC(=O)N1 (stereo not given)	-0.74	-1.3
CCOC(=O)c1sc2nc(SCC#N)n(Cc3cccs3)c(=O)c2c1C	1	·
CCC(C)N=C1NC(=O)C(CC(=O)NCc2ccccc2)S1 (stereo not given)	·	-0.65
C=CCn1c(=O)c2c(nc3n2CC(C)CN3Cc2ccccc2)n(C)c1=O (stereo not given)	2.4	-0.5
O=S1(=O)CCC(NS(=O)(=O)c2ccc(-c3ccccn3)s2)C1 (stereo not given)	1.4	-0.7
O=C(NC1CCCC1)C(c1cccnc1)N(CCc1ccccc1)C(=O)c1ccco1 (stereo not given)	·	0.05
O=C(OCC(=O)N1CCc2ccccc21)c1cccc(S(=O)(=O)N2CCCCC2)c1	·	0.05
Cc1csc(NC(=O)C(CC(C)C)NS(=O)(=O)c2ccc3nc(C)sc3c2)n1 (stereo not given)	0.055	0.95
O=C(NCc1ccccc1)C1Cc2ccccc2CN1S(=O)(=O)c1ccc(F)cc1 (stereo not given)	0.16	-0.9
CN(C)S(=O)(=O)c1ccc(N2CCOCC2)c(C(=O)NCCC2=CCCCC2)c1	·	0.1
Cc1ncc([N+](=O)[O-])n1CCNC(=O)N(Cc1ccco1)Cc1ccccc1C(F)(F)F	-0.26	·
CCN1C(=O)c2ccc(C(=O)Nc3c(C)cc(C)cc3C)cc2C1=O	0.095	0.35
Cc1sc2ncnc(SCC(=O)c3ccc4c(c3)OCCO4)c2c1C	-0.26	0.1
C=CCn1c(SCc2cc3c(cc2Cl)OCO3)nnc1-c1cccnc1	-0.14	0.3
COCCOC(=O)C1=C(C)NC2=C(C(=O)CC(c3ccc(Cl)cc3)C2)C1c1ccc(O)c(OC)c1 (stereo not given)	3.4	·
CN(C)S(=O)(=O)c1ccc(=O)n(CC(=O)NCc2ccc(-c3ccc(Cl)cc3)o2)c1	·	-0.55
C#CCNC(=O)c1ccc2sc3ccccc3n12	1.6	·
CN(C)S(=O)(=O)c1cccc(CSc2ncccn2)c1	·	-0.2
C=CCNC(=S)N1CCC(C(=O)c2ccc(C)cc2)CC1	·	-0.15
COc1cc(N)ccc1NC(=O)c1ccco1	-1.1	-0.9
Cc1ccc(S(=O)(=O)Cc2ccc(C(=O)NCc3ccc4c(c3)OCO4)o2)cc1	-0.26	0.45
CCC(=O)NCCc1cc2ccc(C)cc2[nH]c1=O	24	-0.9
C=C(c1ccc(OC)cc1)c1ccc(OC)cc1	0.26	-0.95
CCN(CC)S(=O)(=O)c1ccc(NC(=O)CSc2nnc(C)s2)cc1	·	-0.1
CC(C)(C)OC(=O)NCC(=O)NNC(=S)NCc1ccccc1	-0.45	·
O=C(c1ccccc1)N1CCN(C(=S)NCc2ccc3c(c2)OCO3)CC1	·	-0.25
O=C1CCC(=O)N1CNc1cccc(Cl)c1Cl	0.43	·
COC(=O)C1CCCN1S(=O)(=O)c1ccccc1 (stereo not given)	-0.21	0.5
Cc1ccc(-n2c(SCC(=O)C(C)(C)C)nnc2-c2ccncc2)cc1	0.005	0.15
O=C(ON(Cc1cccc(C(F)(F)F)c1)Cc1cccc(C(F)(F)F)c1)c1ccc(Cl)cc1	-0.33	-0.45
CC1=C(C(=O)N(C)Cc2ccccc2)C2(CCC(C)CC2)OC1=O (stereo not given)	-0.26	-0.55
CCOC(=O)C(NC(=O)c1ccccc1F)(Nc1sc2c(c1C#N)CCCC2)C(F)(F)F (stereo not given)	-0.27	·
CCOC(=O)Cc1n[nH]c(=O)c2ccccc12	0.44	·

Continued.
mol	CapD inh	AID504770
Cc1cccc(NC2=NC(=S)N(c3ccccc3Cl)C23CCCC3)c1	-0.22	·
Cc1ccc(SCC(=O)NCc2cccs2)cc1	-1.1	-0.7
CC(=O)N(c1ccccc1)c1nc(/C=C(\C#N)C(=O)Nc2nccs2)cs1	·	1.5
Cc1ccc(S(=O)(=O)c2nc(S(C)(=O)=O)sc2N2CCCCC2C)cc1 (stereo not given)	·	-1.2
O=C(CSc1c2c(nc3ccc(Cl)cc13)CCCC2)NCc1ccco1	-0.26	-0.55
CC(Nc1ncnc2ccccc12)C(=O)O (stereo not given)	1.1	-0.65
O=C(Nc1nccs1)c1cc2ccccc2oc1=O	0.075	0
CCOC(=O)N1CCN(C(=O)c2ccc(Cn3c(=O)[nH]c4cc(OC)c(OC)cc4c3=O)cc2)CC1	18	1.3
C#CCSc1nnc(-c2cc3c(C(F)(F)F)nn(C)c3s2)n1C	-0.21	·
Cc1cccc(CN2CCc3c([nH]c4ccccc34)C2)c1	0.28	2
O=C(CC(c1ccccc1)n1cccc1)N1CCc2ccccc21 (stereo not given)	0.88	0.35
O=C(NCc1ccccc1)c1cc2n(n1)C(C(F)(F)F)CC(c1ccccc1)N2 (stereo not given)	-0.015	·
CC(C)NC(=O)c1ccc2c(c1)N(Cc1ccccc1)C(=O)CS2	-0.64	-0.45
Cn1c(=O)oc2cc(S(=O)(=O)N3CCC(C(=O)NCCc4ccccc4)CC3)ccc21	-0.33	1.1
O=C(N/N=C/c1ccoc1)c1ccc2ccccc2c1	1.1	·

Rewritten field by field: part of the list above.
O=C(NCc1ccccc1)C1Cc2ccccc2CN1S(=O)(=O)c1ccc(F)cc1 (stereo not given)
  CapD inh = 0.16
  AID504770 = -0.9

CN(C)S(=O)(=O)c1ccc(N2CCOCC2)c(C(=O)NCCC2=CCCCC2)c1
  CapD inh = ·
  AID504770 = 0.1

The main list resumes with the 3 entries that preceded the break.
mol	CapD inh	AID504770
CC(C)NC(=O)c1ccc2c(c1)N(Cc1ccccc1)C(=O)CS2	-0.64	-0.45
Cn1c(=O)oc2cc(S(=O)(=O)N3CCC(C(=O)NCCc4ccccc4)CC3)ccc21	-0.33	1.1
O=C(N/N=C/c1ccoc1)c1ccc2ccccc2c1	1.1	·
CC(C)(C)N1C(=O)C2C3CC(=O)C(c4ccccc43)C2C1=O (stereo not given)	6.2	·
CCCNC(=O)C(=O)c1cccn1-c1c(C(=O)OCC)cnn1-c1ccccc1	-0.82	·
CCOc1cc(/C=C2\SCOC2=O)ccc1O	-3.4	-0.25
O=S(=O)(Cc1ccccc1)N1CCN(c2ccccc2Cl)CC1	-0.075	-0.5
Cc1cc(S(=O)(=O)c2ccc(Cl)cc2)sc1C(=O)NCC(O)c1ccccc1 (stereo not given)	-0.76	-0.65
Cc1ccc(N(CN2CCCC2=O)C(=O)c2ccccc2)cc1	·	0.1
Cc1cccc2sc(N(CCN(C)C)C(=O)C3COc4ccccc4O3)nc12 (stereo not given)	0.16	-0.35
NC(=O)c1nc(-c2ccccc2)nc2c1[nH]c(=O)n2-c1ccccc1	8.8	1.7
CC1CCCC(NC(=O)CCCn2c(=O)[nH]c3cc(Cl)ccc3c2=O)C1C (stereo not given)	58	-0.25
CCC(Sc1nc2n[nH]c(C)c2c(=N)n1-c1ccc(Br)cc1)C(=O)NCc1ccco1 (stereo not given)	0.4	·
COc1ccc(C)cc1S(=O)(=O)NCc1ccc(F)c(Cl)c1	0.3	·
O=C(CSc1nnnn1-c1ccc(O)cc1)Nc1ccc(C(F)(F)F)cc1	-0.065	·
C=CCOc1ccc(CN2CCCCC2COC(=O)NCc2ccc(-c3csnn3)cc2)cc1 (stereo not given)	-0.62	·
CCN1CCCC1CNC(=O)c1[nH]c2cc(OC)ccc2c1Sc1ccc(Cl)cc1 (stereo not given)	-0.59	-1
Cc1ccccc1OCC(=O)OCC(=O)NC1CC1	-0.76	-1

Compound profiles (already shown). Order of values: CapD inh, AID504770
Cc1ccccc1OCC(=O)OCC(=O)NC1CC1 as listed: -0.76, -1
Cc1ccc(N(CN2CCCC2=O)C(=O)c2ccccc2)cc1 as listed: ·, 0.1
O=S(=O)(Cc1ccccc1)N1CCN(c2ccccc2Cl)CC1 as listed: -0.075, -0.5

Other results.
mol	CapD inh	AID504770
CCOC(=O)c1oc2c(c1C)C(=O)CCC2	-0.39	-0.3
COC(=O)c1c(C)oc2ccc(OC(=O)COc3c(F)c(F)c(F)c(F)c3F)cc12	0.84	·
CC(C[N+](C)(C)C)OC(N)=O (stereo not given)	-0.46&-0.02	0.2
Cc1c(Cl)cccc1Nc1nc(N)nc(CSC(=S)N(C)C2CCCCC2)n1	0.12	0.15
CCCN(Cc1cccs1)C(=O)NCc1ccccc1	0.2	-0.2
COCCOC(=O)C1=C(N)OC(C)=C(C(=O)OC)C12C(=O)Nc1ccc(Br)cc12 (stereo not given)	-0.38	·
COc1cc(/C=c2\sc3nc4c(C)cccc4n3c2=O)cc(Br)c1OC	-0.29	·
CN(C)S(=O)(=O)c1ccc(=O)n(CC(=O)NCC2COc3ccccc3O2)c1 (stereo not given)	·	-0.2
CCN1C(=O)/C(=N/n2cnnc2)c2ccccc21	-0.59	-0.95
CN(C)C(=S)SCC(=O)Nc1ccc(Cl)c(C(F)(F)F)c1	-0.42	1.1
O=C(CN1C(=O)NC(Cc2c[nH]c3ccccc23)C1=O)c1ccc2c(c1)OCCO2 (stereo not given)	·	0.1
COc1cccc(/C(O)=C/c2nc3ccc(C(=O)N4CCN(C5CCCCC5)CC4)cc3[nH]c2=O)c1	-0.12	-0.4
O=C(Cc1ccc(Cl)cc1)Nc1cccc(-c2nc3ccccc3o2)c1	64	0.55
Cc1cnn(CCCNC(=S)Nc2ccc(S(N)(=O)=O)cc2)c1	-0.76	2.7
Clc1cc2nc3[nH]c4ccccc4c3nc2cc1Cl	1.1	·
CC(=O)Oc1c(C)cccc1C(=O)O	1.3	-0.05
CCOc1ccc2c(c1)-c1c(ssc1=S)C(C)(C)N2C(=O)c1ccc(C(F)(F)F)cc1	-0.65	·
N/C(=N\OC(=O)c1cccs1)c1ccccc1	·	-1.8
CN(C)/C=C(/C(=O)c1ccccc1)c1nc2ccccc2[nH]1	·	-1.6
CC(=O)SCCC(=O)N1C(C)CCCC1C(=O)O (stereo not given)	0.31	-0.55
CN(C(=O)COC(=O)c1cccc(F)c1)c1ccccc1	·	-1.2
CC1(C)CC(NC(=O)c2ccco2)CC(C)(C)N1	0.65	1.8
COC(=O)CSc1nc(-c2ccccc2)nc2c1Cc1cccc(OC)c1O2	0.38	-0.2
CSc1ccc(N=CN2C(=O)c3ccccc3C2=O)cc1	-0.21	0.15
C[N+](C)(C)CCNC(=O)c1ccc(/C=N/O)nc1	·	-0.15
CC(=O)Nc1ccc(NC(=O)CC(C)(C)CC(=O)O)cc1	-1.3	-0.7
O=C1c2cccc3cccc(c23)C(=O)N1c1ccncc1	·	0.45
O=C(OCCN1C(=O)c2ccccc2C1=O)c1cccc(S(=O)(=O)N2CCCCC2)c1	·	1.4

Screening results (PubChem BioAssay)
